Screening data: PubChem, National Center for Advancing Translational Sciences (NCATS)
TRPML1 agonist: human mucolipin-1 channel agonism | Q9GZU1 | actives 0.12% (n = 410,000) | activation, % (concentration not given with the values) | AID 624414 | TRPML1-expressing cells, Ca2+ dye fluorescence, FDSS; host cell line not named in the record; reference of the full effect not given here; in the data active = activation above about 50%; inconclusive = about 30% to 50%; inactive = below about 30%; also: 0% is about no effect; the text of the record puts the active cut at 80%
Target sequence (Q9GZU1 whole entry, looked up): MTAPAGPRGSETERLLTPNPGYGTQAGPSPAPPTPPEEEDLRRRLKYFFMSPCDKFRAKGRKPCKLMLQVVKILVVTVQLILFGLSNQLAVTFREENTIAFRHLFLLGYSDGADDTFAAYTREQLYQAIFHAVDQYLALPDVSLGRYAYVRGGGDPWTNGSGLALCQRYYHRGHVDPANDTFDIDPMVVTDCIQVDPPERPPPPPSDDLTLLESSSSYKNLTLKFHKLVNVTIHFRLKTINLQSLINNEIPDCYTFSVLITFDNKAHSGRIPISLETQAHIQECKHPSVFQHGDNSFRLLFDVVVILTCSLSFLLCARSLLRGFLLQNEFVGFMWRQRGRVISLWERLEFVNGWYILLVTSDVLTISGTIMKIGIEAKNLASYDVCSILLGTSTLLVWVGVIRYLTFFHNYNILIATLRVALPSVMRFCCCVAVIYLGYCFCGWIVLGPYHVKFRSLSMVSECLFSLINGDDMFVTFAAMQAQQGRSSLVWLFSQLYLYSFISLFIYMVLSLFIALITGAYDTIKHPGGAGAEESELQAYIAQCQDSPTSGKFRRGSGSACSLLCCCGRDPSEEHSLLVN
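Agonist activity was taken from a 110 s kinetic Ca2+ dye read on the FDSS after pinning compounds onto TRPML1-DL cells. The cells were seeded at 1,500/well with Tet inducer, incubated about 16 h, then dye-loaded at room temperature.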
ClpP mod: qHTS Assay for Activators of ClpP; ATP-dependent Clp protease proteolytic subunit (Bacillus subtilis (strain 168)), P80244; purified B. subtilis ClpP, FRET peptide cleavage, 20 min; Potency, µM (doses to about 57.5 µM), for inactives: at the highest dose activity change, negative = active; actives 1.9% (n = 340,000); active = well fitted falling curve with a large enough effect; inconclusive = small, poorly fitted or top-dose-only effect; inactive = no such curve, though single readings can be large or run the other way; also: potency is read from the fitted curve at half-maximal effect; the source files actives as falling curves though it sought activators and does not explain the sign; nearly all actives have a fitted effect of over 65% in size; many hits overshoot -100%
Target sequence (P80244 whole entry, looked up): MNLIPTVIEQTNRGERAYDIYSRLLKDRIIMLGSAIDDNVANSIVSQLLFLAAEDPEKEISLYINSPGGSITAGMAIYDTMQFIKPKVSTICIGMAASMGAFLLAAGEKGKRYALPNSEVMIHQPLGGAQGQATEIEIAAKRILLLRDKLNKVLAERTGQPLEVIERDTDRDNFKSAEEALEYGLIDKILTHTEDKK
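Purified B. subtilis ClpP, 10 microg/mL final in Tris/HCl pH8 with KCl, BSA, glycerol and Tween-20, cleaved an Abz/nitrotyrosine-quenched decapeptide. Fluorescence (ex 320, em 430) was read at 0 and 20 min at room temperature. Delta was normalized to 5.8 microM ADEP and DMSO/no-enzyme controls.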
Menin MLL FP FL: menin-MLL binding inhibition, fluorescein peptide; Fluorescence polarization, fluorescein-MLL peptide displacement from menin; FP activity change, % at 61.4 µM; 290,000 tested, under 10 active; AID 1766; inconclusive = falling polarisation curve, or a change in total fluorescence; inactive = total fluorescence flat and polarisation flat or rising; no compound was filed as active; the % refers to the polarisation; negative = inhibition;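 also: % of control where 0% means no effect; inhibitors lower the polarisation; unlabelled MLL peptide was the positive control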
gsp agonist: agonists of gsp mutant (McCune-Albright syndrome). gsp mutant cells, cAMP HTRF, 30 min; control for the full effect not named in the record. Potency, µM (top dose mostly 76.9 µM), for the others: at the top dose activation (cAMP increase), most hits filed as activators. actives 0.13% (n = 340,000). AID 624287; active = well fitted activation curve with a large enough effect; inconclusive = small, poorly fitted or top-dose-only effect, or another doubt; inactive = no such curve, though single readings can be large or run the other way; cell line not stated here;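 also: phosphodiesterase inhibitor Ro 20-1724 added with compounds to block cAMP breakdown; potency is read from the fitted curve at half-maximal effect; nearly all actives have a fitted effect of over 60% in size; about a fifth of the inactives were tested at one dose only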
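Cells stably selected in G418 were plated at 2000/well, grown 16-24 hr, then given compounds in DMSO with the PDE inhibitor […] (300 uM solution added) for 30 min at 37C; cAMP was read by HTRF.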
TRPML1 inh: blocks the human TRPML1 channel. TRPML1-inducible cells, Ca2+ dye fluorescence, FDSS; active compounds read low; inhibition of EC80 agonist-evoked calcium signal. Q9GZU1. actives 0.02% (n = 390,000). activity change, negative = inhibition, % (concentration not given with the values). AID 624415; in the data active means activity change below about -50%; inconclusive means about -30% to -50%; inactive means above about -30%;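 also: stimulus is agonist 54-4 at its EC80 concentration; % is scaled to controls: 0 for no effect and ±100 for the full control effect; the text of the record puts the active cut at -80%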
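Tet-induced TRPML1-DL cells loaded with Ca8 no-wash calcium dye were read kinetically on FDSS. Compound addition was followed by EC80 agonist 54-4 (4 uM final); inhibition was read over 110 s.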
gsp antagonist: gsp mutant antagonism. AID 624288. gsp-mutant cells, cAMP HTRF, 30 min; control for the full effect not named in the record. actives 0.4% (n = 340,000). Potency, µM (titrated, usually from 76.9 µM), for inactives: at the highest dose activity change, negative = inhibition, most hits filed as inhibitors; active = falling curve of any shape with a large fitted effect; inconclusive = falling curve, mostly with a smaller effect; inactive = flat or rising curve; cell line not stated here;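 also: intracellular cAMP measured with PDE inhibitor Ro 20-1724 present during compound exposure; potency is read from the fitted curve at half-maximal effect; % is scaled to controls: 0 for no effect and ±100 for the full control effect; nearly all actives have a fitted effect of over 65% in size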
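Measurement of cellular cAMP by homogeneous time-resolved fluorescence following a 30 min compound exposure at 37C. The PDE inhibitor […] was present throughout; the assay buffer was DPBS with 0.05% BSA and 0.005% Tween 20.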
* hit, by the source's call; ? = inconclusive; . = not tested or not shown; & = joins results of further samples; [ ] = remark or other dose.

SMILES	TRPML1 agonist	ClpP mod	Menin MLL FP FL	gsp agonist	TRPML1 inh	gsp antagonist
N#Cc1c(-c2ccc(C(F)(F)F)cc2)cc(-c2ccccc2)[nH]c1=S	-0.4	0.9%	0.6	-32%	0	7%
Cc1cc(C(=O)NCc2cccs2)ccc1[N+](=O)[O-]	0.0	0.2%	-1.5	8%	-20	-2%
CCCS(=O)(=O)NC(=O)C1(C)CCN(C(=O)c2cc(OC)c(OC)c(OC)c2)C1 (centres undefined)	-0.4	0.1%	.	.	-1	.
O=C(CSc1ccccn1)Nc1ccc2c(c1)OCO2	0.2	.	3.5	9%[15.4 µM]	16	5%
O=C(CC1C(=O)NCCN1Cc1ccc(-c2ccccc2)cc1)NCC1CCOCC1 (centres undefined)	0.6	.	-1.2	-2%	-24	5%
CCN(CC)c1ccc(N=C2C=CC(=O)C=C2NC(C)=O)cc1	4.9	-2.6%	.	13%[15.4 µM]	-17	-16%
Cc1cc(F)ccc1NC(=S)NC1CCCC1	-0.6	-1.7%	-6.7	3%	-3	-2%
COc1ccc(CNC(=S)Nc2ccccc2C)cc1	0.4	-2.7%	0.3	-44%[inhibitor]	-8	-10%
CCOC(=O)c1cnn(CCOC(=O)c2ccccc2F)c1NC(=O)c1ccccc1F	0.2	-4.4%	3.9	2%[15.4 µM]	-8	6%
CCOc1ncccc1C(=O)Nc1ccc(F)cc1	0.8	.	-0.5	1%[15.4 µM]	-19	0%
C(=N\Nc1nc2ccccc2[nH]1)/c1cccc2cccnc12	-1.0	1.2%	3.3	-7%	-7	-10%
CCOC(=O)c1ccc(NCC(O)COc2ccccc2)cc1 (centres undefined)	2.4	-19%	-6.1	5%	-8	0%

Rewritten with each value named: entries from further up.
Cc1cc(C(=O)NCc2cccs2)ccc1[N+](=O)[O-]
  TRPML1 agonist: 0.0 | ClpP mod: 0.2% | Menin MLL FP FL: -1.5 | gsp agonist: 8% | TRPML1 inh: -20 | gsp antagonist: -2%

CCCS(=O)(=O)NC(=O)C1(C)CCN(C(=O)c2cc(OC)c(OC)c(OC)c2)C1 (centres undefined)
  TRPML1 agonist: -0.4 | ClpP mod: 0.1% | Menin MLL FP FL: . | gsp agonist: . | TRPML1 inh: -1 | gsp antagonist: .

O=C(CSc1ccccn1)Nc1ccc2c(c1)OCO2
  TRPML1 agonist: 0.2 | ClpP mod: . | Menin MLL FP FL: 3.5 | gsp agonist: 9%[15.4 µM] | TRPML1 inh: 16 | gsp antagonist: 5%

Continued:
SMILES	TRPML1 agonist	ClpP mod	Menin MLL FP FL	gsp agonist	TRPML1 inh	gsp antagonist
COC1OC2COC(c3ccccc3)OC2C2OC(c3ccccc3)OC12 (centres undefined)	0.8	-0.4%	.	?	-7	.
O=C(Oc1oc(-c2ccco2)nc1C=Nc1ccc(Cl)cc1)c1ccco1	1.8	-9.7%	-1.3	2%	-8	-4%
CN1C(=S)N(c2ccccc2)C(=O)/C1=C/c1ccco1	0.9	0.9%	6.7	-4%	15	-6%
Cc1ccc(-c2cc(C(F)(F)F)nn2-c2ccc(S(N)(=O)=O)cc2)cc1	2.8	-3.0%	-2.3&9.4&-0.4	.	29	-21%
CC(NC(=O)COC(=O)CNC(=O)c1ccccc1Cl)C1CC2CCC1C2 (centres undefined)	0.2	-29%	.	-2%[15.4 µM]	26	-5%
CCN1C(=O)c2ccccc2Sc2ccc(NC(=O)c3ccc(C#N)cc3)cc21	1.0	-15%	.	.	-24	.
C/C(=N/NC(=O)CNC(=O)c1ccccn1)c1cccc([N+](=O)[O-])c1	0.0	.	0.6	-13%[15.4 µM]	-4	2%
CC1CCCC(NC(=O)Cn2cc(C(F)(F)F)cc(Cl)c2=O)C1C (centres undefined)	-1.5	-3.2%	.	-16%	8	5%
N#C/C(=C\c1cn(-c2ccccc2)nc1-c1cc2ccccc2o1)c1nc2ccccc2[nH]1	1.1	-11%	?	-27%	-14	20%
CCOc1ccccc1N1CCN(C(=O)C2c3ccccc3Oc3ccccc32)CC1	0.9	-1.8%	2.4	-8%	53	-5%
COC(=O)c1cc(S(=O)(=O)Nc2ccsc2C(=O)OC)oc1C	0.9	-4.8%	2.5	12%	38	-8%
O=C(NCc1cccs1)C1CCN(S(=O)(=O)c2ccc(Cl)cc2)CC1	-0.4	.	3.2	10%[15.4 µM]	-22	.
O=C(C[n+]1cccc(C(=O)N/N=C/c2cccc([N+](=O)[O-])c2)c1)c1ccccc1	0.2	-0.9%	.	5%[15.4 µM]	-16	3%
COc1ccc(C(=O)NCC(c2cccnc2)N2CCc3ccccc32)cc1 (centres undefined)	1.5	-0.6%	.	.	-14	.
CC(C)c1ccc(NC2CCCN(C(=O)CCc3cn[nH]c3)C2)cc1 (centres undefined)	0.2	1.1%	.	-6%[15.4 µM]	13	5%
COc1ccc(CC(=O)Nc2nc3ccc(F)cc3s2)cc1S(=O)(=O)N1CCOCC1	0.4	-3.0%	1.1	-26%	47	-9%
CN=C(Nc1cccc(OC)c1)SC1CC(=O)N(c2ccc(C(=O)O)cc2)C1=O (centres undefined)	-0.8	-0.2%	5.7	7%	6	-10%
COc1ccccc1C(=O)C1CCCN(C(=O)CN2CCCCC2=O)C1 (centres undefined)	-0.5	.	1.5	15%[15.4 µM]	15	-3%
COc1ccccc1NC(=S)N(Cc1ccco1)Cc1cc2cc(C)cc(C)c2[nH]c1=O	2.7	-25%	3.9	-73%[inhibitor]	-9	-6%
Cc1cc(C)cc(OCC(=O)Nc2ccc(F)cc2)c1	-0.1	-0.3%	4.5	-4%	-5	-3%
COc1cccc(/C=C/C(=O)OCC(=O)NCC2CCCCC2)c1OC	0.7	4.0%	.	-2%	8	0%
COC(=O)c1cn(NC(=O)Cn2nc([N+](=O)[O-])c(Br)c2C)c(=O)c2ccccc12	-1.1	-3.4%	-3.9	4%[15.4 µM]	11	-3%
COC(=O)C1C(O)C(C)C(O)C(C)(O)/C=C\C=C(/C)C(=O)Nc2c(C)c(OC(C)=O)c3c(c2O)C(=O)C(C)=C2OCOC(=C23)/C(C)=C/C(C)(O)C(O)C(C)C1O (centres undefined)	1.4	.	-3.3	6%	-12	-9%
O=c1n(Cc2ccc(F)cc2)c2ccccc2c2nc(-c3ccccc3)nn12	-0.5	-3.3%	.	.	-17	.
Cc1cc(C(C)(C)C)ccc1OC(=O)C1=CC=CN2CCS(=O)(=O)N=C12	-0.8	0.3%	.	31%	5	6%
CCCn1c(=O)c(C(=O)NCc2ccccn2)c(O)c2ccccc21	1.2	?	5.2	?	-4	0%
COc1ccc(N(C(C)C(=O)N(C)Cc2ccccc2)S(C)(=O)=O)cc1 (centres undefined)	.	0.3%	8.4	21%	.	9%
COc1ccccc1CNC(=O)CN1C(=O)NC2(CCCCCCC2)C1=O	-0.2	.	.	8%	7	-3%
COc1ccc2oc(C(=O)OCC(=O)Nc3ccccc3)c(C)c2c1	-0.5	28µM*	-2.3	-48%[inhibitor]	-2	5%
CC(C)CC(=O)NS(=O)(=O)c1ccc(N)cc1	0.1	1.4%	0.6	-50%[inhibitor]	-9	5%
O=C(CCSCCc1ccccn1)Nc1ccc(Br)cn1	3.9	-0.3%	2.2	-22%	31	3%
Cc1cc(CNCc2c(C(=O)N3CCCCCCC3)nc3ccc(Cl)cn23)nn1C	-0.2	.	-2.2	?	49	1%
O=C1NCCN1C(=O)C12CC3CC(CC(C3)C1)C2	-0.4	0.0%	10	19%	32	-3%
CC(C)CC(=O)NCCNC(=O)c1cc(OCC(F)(F)F)ccc1OCC(F)(F)F	-0.7	-7.3%	-0.3	25%	11	4%
O=C(COc1ccccc1)NCCn1ccc2ccccc21	0.5	-2.9%	2.1	5%	11	-4%
CCOC(=O)N1CCN(C(=O)CCN2C(=O)/C(=C\c3ccc(OC)c(OC)c3)SC2=S)CC1	-0.6	2.5%	.	?	11	.
COc1ccc(C(=O)NCC(=O)N2CCN(C(=O)c3ccco3)CC2)cc1	0.4	.	.	-16%[15.4 µM]	-12	8%
O=C(CSc1ccccc1)Nc1ccc2c(c1)OCCO2	0.5	0.1%	.	-2%[15.4 µM]	8	-2%
COc1ccc(CCNC(=O)CNC(=O)c2ccccc2Br)cc1OC	-0.1	.	.	6%[15.4 µM]	16	.
CCOc1cc(N2CCOCC2)c(OCC)cc1NC(=O)c1cccc(S(=O)(=O)N2CCOCC2)c1	0.4	-2.6%	.	-24%	12	-14%
Cc1cccc(CCNC(=O)c2ccc(CSCc3cccc(Cl)c3)o2)c1	3.5	-1.6%	.	.	-12	.
Cc1ccc(NC(=O)NCc2cccn2Cc2ccccc2)c(C)c1	0.5	-0.5%	.	.	33	.
Cc1ccc(S(=O)(=O)N2CCOCC2)cc1C(=O)Nc1cc(S(=O)(=O)N2CCCCC2)ccc1O	1.3	-1.6%	.	-10%	-17	-2%
Cc1ccccc1Nc1c(-c2ccc(O)cc2)nc2c(C)cccn12	1.7	3.6%	.	.	14	.
CNC[C@H](O)c1cccc(O)c1	-0.1	2.2%	-7.2&8.5&-1.3	.	13	10%
CC(=O)Nc1ccc(C(=O)OCc2ccccc2Cl)cc1	2.7	-1.1%	0.3	-67%[inhibitor]	38	-6%
COc1ccnc(CSC(N)=Nc2cccc(C(F)(F)F)c2)c1	-0.8	-21%	0.9	4%	0	-2%
COc1cc(/C=N/NC(=O)c2nonc2N)cc(OC)c1OC	0.9	.	-5.3	-7%	9	-1%
CCCCNC(=O)COC(=O)c1ccc(Cl)c(S(N)(=O)=O)c1	-0.9	14µM*	-1.1	0%	-9	-5%
COCCn1c(C)cc(C(=O)CSc2nnnn2C2CCCC2)c1C	-0.2	1.4%	.	-4%	4	1%
CC(C)(C)OC(=O)NCCCCCO	1.3	-1.0%	3.2	.	-6	-4%
Cc1ccc(SC/C(O)=C(\C#N)c2nc3ccccc3n2C)cc1	1.3	-3.3%	0.1	14%	16	4%
CN(C1CCCCC1)S(=O)(=O)c1ccc2c(c1)c(=O)c(C(=O)NCCc1ccccc1)cn2C	-0.9	-0.4%	.	.	21	.
Cc1ccc(S(=O)(=O)N2CCN(C(=O)C3CCN(C(=O)c4ccccc4C)CC3)CC2)cc1C	-0.3	.	4.5	21%[15.4 µM]	7	.
Cc1c(C#N)c(NC(=O)CCl)n(Cc2ccc(F)cc2)c1C	0.4	0.5%	-8.0	22%	-8	-20%
CC(=O)Nc1ccc(OCC(=O)NC(C)c2ccc(F)cc2)cc1 (centres undefined)	0.8	0.1%	0.3	?	18	15%

Four of the entries above in order of their number in gsp agonist, ascending:
compound,gsp agonist
COCCn1c(C)cc(C(=O)CSc2nnnn2C2CCCC2)c1C,-4%
CCCCNC(=O)COC(=O)c1ccc(Cl)c(S(N)(=O)=O)c1,0%
Cc1ccc(SC/C(O)=C(\C#N)c2nc3ccccc3n2C)cc1,14%
Cc1c(C#N)c(NC(=O)CCl)n(Cc2ccc(F)cc2)c1C,22%
